StopGo reporter: High Throughput Screening for Foot and Mouth Disease Virus Antivirals. human cells with a luciferase reporter of 2A StopGo recoding; control for the full effect not named in the record. Potency, µM (series often up to 57.9 µM), without a hit: top-dose signal change, negative = less light. hit rate 1.2% among 410,000; active = well fitted falling curve with a large enough effect; inconclusive = small, poorly fitted or top-dose-only effect; inactive = no such curve, though single readings can be large or run the other way; tested in HEK293T cells; also: % is scaled to controls: 0 for no effect and ±100 for the full control effect; nearly all actives have a fitted effect of over 45% in size; luciferase light after 4 h
NS1 inh: qHTS Assay for Inhibitors of Influenza NS1 Protein Function | hit rate 0.4% among 270,000 | AID 2326, 2010 | S. cerevisiae slowed by influenza A NS1, growth recovery by OD600 | Potency, µM (doses to about 46.1 µM), for inactives: top-dose activity, positive = more growth; active means well fitted rising curve with a large enough effect; inconclusive means small, poorly fitted or top-dose-only effect; inactive means no such curve, though single readings can be large or run the other way; also: nearly all actives have a fitted effect of over 50% in size
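Read-out: OD600 growth recovery of NS1-expressing budding yeast. Cells grown overnight at 30C in -URA glucose medium, washed, resuspended and diluted 1:100 in 2% galactose assay medium, pH 6.0. Same strain lacking NS1 served as positive control.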
MARV entry inh: qHTS for inhibitors of binding or entry into cells for Marburg Virus; Marburg virus pseudotyped entry inhibition, cell reporter; control for the full effect not named in the record; about a third of the inactives were read at about 46 µM; Potency, µM (titrated, usually from 37.8 µM), without a hit: top-dose activity change, negative = inhibition, most hits filed as inhibitors; hit rate 1.8% among 300,000; AID 540276, 2011; active = well fitted inhibition curve with a large enough effect; inconclusive = small, poorly fitted or top-dose-only effect, or effect the other way; inactive = flat fitted curve, though single readings scatter; tested in HEK293 cells; about a fifth of its hits are not listed in these tables; also: % is scaled to controls: 0 for no effect and ±100 for the full control effect; luciferase read-out
RE007 growth inh: qHTS Assay for Inhibitors of the HIV-1 protein Vpr; S. pombe RE007 Vpr strain, BacTiter-Glo ATP luminescence, 24 h; control for the full effect not named in the record; Potency, µM (series often up to 92.2 µM), without a hit: at the highest dose activity change, negative = less growth; hit rate 0.21% among 360,000; active = well fitted falling curve with a large enough effect; inconclusive = small, poorly fitted or top-dose-only effect; inactive = no such curve, though single readings can be large or run the other way;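 also: % is scaled to controls: 0 for no effect and ±100 for the full control effect; nearly all actives have a fitted effect of over 50% in size; the assay follows cell death caused by Vpr and the record does not say whether a fall means rescue or toxicity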
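Fission yeast RE007 carrying one integrated HIV-1 vpr copy, seeded at OD 0.01 in PMG+AL medium with 23 nL pinned compound. Grown 24 h at 30 degrees; viability read by BacTiter-Glo luminescence after 5 min.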
Lassa entry inh: qHTS for Inhibitors of binding or entry into cells for Lassa Virus. Potency, µM (titrated, usually from 37.9 µM), inactives show at the top dose activity change, negative = inhibition, usual class: inhibitors. hit rate 1.2% among 300,000. Lassa virus pseudotype entry inhibition, cell reporter; control for the full effect not named in the record; active means well fitted inhibition curve with a large enough effect; inconclusive means small, poorly fitted or top-dose-only effect, or effect the other way; inactive means flat fitted curve, though single readings scatter; tested in HEK293 cells; also: % is scaled to controls: 0 for no effect and ±100 for the full control effect; nearly all actives have a fitted effect of over 50% in size; luciferase read-out
Cruzain inh Det: qHTS Assay for Promiscuous and Specific Inhibitors of Cruzain (with detergent) | purified cruzain, Z-FR-AMC fluorescence, 0.01% Triton | Potency, µM, inactives show max response, negative = inhibition, most hits filed as inhibitors | hit rate 0.43% among 200,000;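 also: plate controls were neutral wells for no effect and buffer without enzyme for full effect; nearly all actives have a fitted effect of over 40% in size; top concentration of the series not given in the record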
Target sequence (P25779 123-467 limits assumed): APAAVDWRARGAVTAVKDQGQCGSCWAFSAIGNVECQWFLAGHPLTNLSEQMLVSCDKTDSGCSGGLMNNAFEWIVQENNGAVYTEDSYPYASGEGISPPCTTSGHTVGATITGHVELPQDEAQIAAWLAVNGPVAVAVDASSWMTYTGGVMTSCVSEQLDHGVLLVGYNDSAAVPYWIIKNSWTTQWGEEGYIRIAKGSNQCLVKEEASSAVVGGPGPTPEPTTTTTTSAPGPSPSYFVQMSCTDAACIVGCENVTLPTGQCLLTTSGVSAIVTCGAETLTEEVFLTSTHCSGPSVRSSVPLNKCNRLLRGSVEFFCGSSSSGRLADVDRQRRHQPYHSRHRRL
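Sodium acetate buffer (100 mM, pH 5.5) containing 5 mM DTT and 0.01% Triton X-100 hosted 1.5 nM cruzain and test compound for 15 min at room temperature. Cleavage of 2 uM Z-FR-AMC was then tracked by fluorescence.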
Cruzain noTriton: qHTS Assay for Promiscuous and Specific Inhibitors of Cruzain (without detergent). hit rate 2.3% among 200,000. AID 1476, 2009. purified cruzain, Z-FR-AMC fluorescence, no detergent. Potency, µM, for inactives: max response, negative = inhibition, hits mostly inhibitors;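 also: plate controls were enzyme without inhibitor for no effect and buffer without enzyme for full effect; nearly all actives have a fitted effect of over 40% in size; top concentration of the series not given in the record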
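Purified cruzain at 1.5 nM, pre-incubated 15 min with compound at room temperature in 100 mM sodium acetate pH 5.5, 5 mM DTT, 0.00005% Triton X-100. Reaction started with 2 uM Z-FR-AMC; AMC fluorescence increase over 60 s gives rate.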
SARS PLpro yeast: qHTS of Yeast-based Assay for SARS-CoV PLP; S. cerevisiae expressing SARS-CoV PLpro, growth rescue; control for the full effect not named in the record; Potency, µM (titrated, usually from 32.9 µM), for inactives: top-dose activity, positive = growth rescue; hit rate 0.19% among 330,000; AID 485353, 2010; active means well fitted rising curve with a large enough effect; inconclusive means small, poorly fitted or top-dose-only effect; inactive means no such curve, though single readings can be large or run the other way; also: 0% is about no effect; nearly all actives have a fitted effect of over 55% in size; growth read by luminescence after 48 h
An asterisk follows results filed as active; ? = inconclusive; · = not tested or not shown; [ ] = dose if it differs, or a comment. Unless noted, calls follow the shape of the dose curve; as a rule, active = well fitted curve in the direction sought with a large enough effect; inconclusive = small, poorly fitted or top-dose-only effect, or another doubt; inactive = no such curve, though single readings can be large; an effect the other way counts as inactive or inconclusive. Potency is read from the fitted curve at half-maximal effect.

mol | SARS PLpro yeast | Lassa entry inh | NS1 inh | Cruzain noTriton | RE007 growth inh | Cruzain inh Det | StopGo reporter | MARV entry inh
CC(=O)/C=C(\C)Nc1ccc(-c2cnc(-c3ccccc3)o2)cc1 | ? | ? | -74.2% | 12.2% | -18.8% | -15.7% | -17.0% | ?
COC(=O)Cc1c(C)c2cc3c(c(C)c2oc1=O)OCN(CCc1ccccc1F)C3 | · | -15.3%[46.1 µM] | · | -7.2% | · | -8.9% | -1.5% | ?
O=C(COC(=O)Cc1ccsc1)Nc1ccc(S(=O)(=O)N2CCOCC2)cc1 | -17.7% | -12.5%[46.1 µM] | 11.3% | 1.1% | 5.4% | -1.8% | -16.3% | 15.8%[46.1 µM]
CCCc1cc(=O)n(-c2nc3ccccc3s2)[nH]1 | -0.6% | · | 1.9% | · | 6.1% | · | 7.0% | ·
N#Cc1cn(CCOc2ccc(F)cc2)c2ccccc12 | -85.9% | 0.7% | -21.7% | 7.4% | -17.7% | -8.6% | ? | -27.4%
COc1ccc(NC(=O)C2CCCN(S(C)(=O)=O)C2)cc1Cl (stereo not given) | 0.9% | -0.5%[46.1 µM] | 20.4% | · | 8.8% | · | -21.6% | -1.0%[46.1 µM]
CCOC(=O)C1CCN(C(=O)c2ccc(Oc3cc(Cl)cc(Cl)c3)o2)CC1 | -6.3% | -8.7% | -71.7% | · | 2.4% | · | -21.1% | 13.7%
CC1(O)N(CCC(=O)Nc2cccc(F)c2)C(=O)OC12CCCCC2 (stereo not given) | -0.8% | 7.0% | · | · | 0.6% | · | -0.3% | 10.8%[46.1 µM]
CCOc1ccccc1N1CCN(C2=C(NS(=O)(=O)c3cccs3)C(=O)c3ccccc3C2=O)CC1 | -0.5% | ? | ? | -29.5% | -11.4% | 5.8% | -8.9% | -22.4%
Cc1ccc(NC(=O)Cn2c([N+](=O)[O-])cnc2C)cc1Cl | 1.0% | 10.2%[46.1 µM] | 4.6% | · | -0.3% | · | -6.2% | 9.9%[46.1 µM]
CC(OCC(O)CN(C)CCOc1ccccc1)c1ccc(Cl)cc1 (stereo not given) | -4.6% | 2.4% | 0.6% | 10.9% | 7.5% | -1.0% | ? | ?
O=C(O)CCCN=CC1=C(O)C(C(=O)c2ccccc2)CCC1=O (stereo not given) | -14.2% | 2.4% | 6.7% | 1.9% | 4.0% | -2.9% | -11.8% | 28.1%
O=C(c1cc2c(ccc3ccccc32)o1)N1CCCCC1 | -8.6% | ? | -27.0% | · | -21.5% | · | 11.6% | ?
CCOc1ccc(NC(=O)CNC(=O)c2ccc(OC)cc2)cc1 | 0.9% | -0.5%[46.1 µM] | -10.2% | · | -0.9% | · | 0.0% | ?
COc1cccc(NC(=O)CCCn2nc(C)c3c(C)n(-c4ccccc4)nc3c2=O)c1 | 0.2% | · | -0.3% | · | 4.6% | · | -18.8% | ·
CCn1c(CNC(C)=O)nnc1SCC(=O)c1ccc(Br)cc1 | -4.6% | 0.1% | ? | 3.0% | 9.6% | -1.6% | · | 14.1%
Cc1ccc(S(=O)(=O)N(CC(=O)Nc2ccc3c(c2)OCO3)c2ccc(C)c(Cl)c2)cc1 | · | 0.3%[46.1 µM] | · | -22.6% | · | -3.0% | 70.4%[activator] | ·
CCN(CC1CCCN(CCc2cccc(OC)c2)C1)C(=O)C=C(C)C (stereo not given) | -9.8% | · | -0.3% | · | -4.2% | · | -7.8% | ·
COc1ccc2oc(=O)cc(CN3CCN(Cc4ccc(OC)c(OC)c4OC)CC3)c2c1 | 0.8% | · | -0.2% | · | -8.7% | · | -5.0% | ·
C=C(C)CN(CC)C(=O)COc1ccc(S(=O)(=O)Nc2ccc(OC)cc2)cc1 | 5.0% | ? | -10.4% | -6.2% | -0.6% | 1.1% | 18.4% | -2.2%
COc1cc(Cl)ccc1OCc1cc(C(=O)N2CCCCC2c2cccnc2)no1 (stereo not given) | -48.5% | · | 3.16µM* | · | -7.7% | · | -10.9% | ·
CCCCc1nc2c(C)c(N)cnc2n1Cc1cccc([N+](=O)[O-])c1 | 0.8% | 9.7%[46.1 µM] | 1.0% | · | -8.2% | · | -0.5% | -9.0%[46.1 µM]
O=C(NCc1cccc(Cl)c1)c1cc(COc2ccc3ncccc3c2)on1 | -2.3% | ? | -4.2% | · | ? | · | 15.8µM* | ?
C=CCN=C1NN=C(c2cc(C)n(CCOC)c2C)CS1 | -22.0% | ? | 15.4% | -4.7% | -7.3% | -10.7% | 4.47µM* | ?

A few values from the results shown.
`N#Cc1cn(CCOc2ccc(F)cc2)c2ccccc12` in Lassa entry inh: 0.7%
`CCCCc1nc2c(C)c(N)cnc2n1Cc1cccc([N+](=O)[O-])c1` in Lassa entry inh: 9.7%[46.1 µM]
`COC(=O)Cc1c(C)c2cc3c(c(C)c2oc1=O)OCN(CCc1ccccc1F)C3` in Cruzain inh Det: -8.9%

A different layout for some results above.
Every second line gives: SARS PLpro yeast	Lassa entry inh	NS1 inh	Cruzain noTriton	RE007 growth inh	Cruzain inh Det	StopGo reporter	MARV entry inh
- CCOc1ccc(NC(=O)CNC(=O)c2ccc(OC)cc2)cc1
→ 0.9%	-0.5%[46.1 µM]	-10.2%	·	-0.9%	·	0.0%	?
- CCCCc1nc2c(C)c(N)cnc2n1Cc1cccc([N+](=O)[O-])c1
→ 0.8%	9.7%[46.1 µM]	1.0%	·	-8.2%	·	-0.5%	-9.0%[46.1 µM]

(further entries)
mol | SARS PLpro yeast | Lassa entry inh | NS1 inh | Cruzain noTriton | RE007 growth inh | Cruzain inh Det | StopGo reporter | MARV entry inh
N#CCCN(Cc1ccccc1)C(=S)NC(=O)c1ccccc1 | -4.8% | 3.0% | -7.8% | -19.4% | 10.5% | -1.6% | -13.6% | -25.6%
COc1cc(/C=N\NC(=O)C(C)(C)O)ccc1OC/C=C/c1ccccc1 | 0.9% | ? | -41.4% | · | 10.4% | · | 15.1% | -12.2%[46.1 µM]
CCOc1ccc(NC(=O)CSc2nnc(-c3cc(C)[nH]n3)n2N)cc1 | 1.6% | -8.9%[46.1 µM] | 10.4% | · | 5.0% | · | 8.2% | 1.2%[46.1 µM]
C=CCn1c(=O)c(C(=O)Nc2ccc(C)cc2)c(O)c2ccccc21 | 2.0% | · | -5.9% | · | -5.6% | · | 24.9% | ·
Cc1ccc(/C=N/Nc2cccc3cccnc23)c(O)c1 | -14.3% | ? | 3.4% | -4.5% | -16.4% | -6.8% | 20.0% | ?
COc1ccc(N2CCN(C(=O)Nc3ccc(S(=O)(=O)N(C)C)cc3)CC2)cc1 | 1.7% | ? | 9.2% | -0.2% | 0.4% | 2.8% | -28.0% | 4.6%
CC1(c2ccccc2Cl)NC(=O)N(CC(=O)N2c3ccccc3NC(=O)C2(C)C)C1=O (stereo not given) | -0.5% | 6.8% | · | · | 0.6% | · | -21.3% | -19.5%
CC(C)c1ccc2c(c1)C(c1cccs1)=NNC(c1ccncc1)=N2 | -1.4% | · | 2.4% | · | 1.1% | · | 10.0% | ·
Cc1cccc(C(=O)OCC(=O)N2CCCC2=O)c1O | -4.0% | 3.5% | · | · | 2µM* | · | 26.1% | ?
Cc1ccc(C)c(N(CC(=O)NC2CCCC2)C(=O)CCC(=O)Nc2cc(C)on2)c1 | -2.5% | · | 2.7% | · | 7.5% | · | 9.8% | -1.2%[46.1 µM]
O=C(N/N=C/c1ccc(Br)cc1)c1ccc(F)cc1 | -11.5% | 24.2% | -1.1% | -2.3% | -5.2% | -2.9% | 51.2%[activator] | ?
COc1ccc2c(c1)CCC1C2CC[C@@]2(C)C1CC[C@@H]2NCCCCCCN1C(=O)C=CC1=O (stereo not given in full) | · | 0.7% | -8.7% | 11.3% | · | 2.5% | · | ?
O=C(Nc1ccc(NC(=O)c2cccs2)cc1)c1ccc2c(c1)OCO2 | -2.0% | 8.2% | -75.8% | · | -8.5% | · | 9.1% | ?
COc1ccc(Nc2oc(-c3ccc(COc4ccccc4C)o3)nc2C#N)cc1 | · | -4.1%[46.1 µM] | · | ? | · | -4.6% | ? | -21.3%[46.1 µM]
COc1ccc(OC)c(N2C(=O)CCCC2=O)c1 | 2.6% | -0.7% | -13.3% | · | 71.9% | · | -11.4% | -7.3%
CCc1ccc(CNC(=O)C2Cc3cc(S(=O)(=O)N4CCCCCC4)ccc3N2C(C)=O)cc1 (stereo not given) | · | 22.6%[46.1 µM] | · | -6.4% | · | 1.7% | -11.2% | ·
CCOC(=O)C1=C(COC(=O)Cc2ccccc2)NC(=O)NC1C (stereo not given) | 3.3% | · | 2.0% | · | 1.5% | · | -19.4% | ·
CCC(=O)N1c2ccc(S(=O)(=O)CCC(=O)N3CCN(c4ccc(F)cc4)CC3)cc2CC1C (stereo not given) | · | -23.2%[46.1 µM] | · | 3.1% | · | -2.8% | ? | 4.9%[46.1 µM]
O=C(Nc1ccc(F)cc1)C1(S(=O)(=O)c2ccc(Cl)cc2)CC1 | -3.4% | 5.1% | -31.6% | · | 1.2% | · | 0.8% | -20.3%[46.1 µM]
CC1CC(C)CN(c2ncc3c(n2)CC(c2ccccc2)CC3=O)C1 (stereo not given) | 11.9% | 2.82µM* | ? | -0.9% | 13.1% | -23.1% | 0.0% | -15.2%
CCc1ccc(-c2csc(NC(=O)C3CCCO3)c2C(=O)OC(C)C)cc1 (stereo not given) | -33.0% | ? | 14.0% | 10.2% | -0.3% | -9.7% | ? | ?
O=C1OC(Sc2ccccc2)(c2ccccc2)c2ccccc21 (stereo not given) | · | -17.9% | · | · | 4.4% | · | -27.6% | -9.8%
COc1ccc(-n2c(SCC#N)nc3c(sc(=S)n3-c3ccccc3)c2=O)c(OC)c1 | 0.6% | 2.8%[46.1 µM] | 13.9% | · | 6.7% | · | 7.7% | ?
Cc1cc(Cl)ccc1OC(C)C(=O)NN1C(=O)c2ccccc2C1=O (stereo not given) | 0.4% | 8.0% | 1.8% | · | 7.3% | · | 42.6%[activator] | 0.9%[46.1 µM]
